# GLA inh pH 4.5 = qHTS Assay for Inhibitors of Human alpha-Galactosidase at pH 4.5. Alpha-galactosidase A (Homo sapiens), P06280. purified enzyme, 4-MU-alpha-Gal fluorescence, pH 4.5. activity change, negative = inhibition, % at 105 µM. 230,000 tested, under 10 active. AID 1467, 2008; inconclusive = small, poorly fitted or top-dose-only inhibition, or a rising curve; inactive = flat fitted curve, though single readings scatter; no compound was filed as active;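 note: 0% = full activity with enzyme and -100% = basal without enzyme; dose as in the result columns while the protocol names 77 µM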
# Target sequence (P06280 whole entry, looked up): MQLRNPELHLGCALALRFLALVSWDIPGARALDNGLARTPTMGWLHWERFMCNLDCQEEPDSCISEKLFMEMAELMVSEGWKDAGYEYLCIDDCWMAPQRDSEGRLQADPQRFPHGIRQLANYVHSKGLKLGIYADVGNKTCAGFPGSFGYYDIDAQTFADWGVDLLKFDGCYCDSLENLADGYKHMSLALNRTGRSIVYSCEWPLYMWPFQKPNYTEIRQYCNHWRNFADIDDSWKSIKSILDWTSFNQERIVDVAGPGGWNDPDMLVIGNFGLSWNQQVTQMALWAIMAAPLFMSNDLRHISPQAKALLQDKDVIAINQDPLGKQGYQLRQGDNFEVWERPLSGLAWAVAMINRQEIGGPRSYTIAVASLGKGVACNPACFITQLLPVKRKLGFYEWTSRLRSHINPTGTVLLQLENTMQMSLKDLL
# Rango release inh = qHTS Assay for Inhibitors of RanGTP induced Rango (Ran-regulated importin-beta cargo) - Importin beta complex dissociation; hit rate 0.071% among 340,000; Snurportin-1 (Homo sapiens) + GTP-binding nuclear protein Ran (Homo sapiens) + Importin …; Potency, µM (titrated, usually from 46.1 µM), without a hit: at the top dose activity change, negative = inhibition; Biochemical FRET Rango-importin beta, RanGTP-induced dissociation; active means falling FRET ratio curve, often poorly fitted, with flat reads before Ran was added; inconclusive means other falling curves, or compound fluorescence or quenching; inactive means flat or rising ratio curve;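 note: potency is the fitted concentration of half-maximal effect; % of control where 0% means no effect; nearly all actives have a fitted effect of over 45% in size; -100% = wells without RanGTP and RCC1; the record marks most hits as doubtful in a second field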
#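 Rango/importin beta premix (0.1/0.25 uM final), PBS + 1 mM DTT + 0.02% Tween-20 + 0.1% BSA; cpd 5 min RT; FRET pre-read; + RanGTP-RCC1 (0.6 uM Ran, 2 mM GTP, 0.2 uM RCC1); 45 min RT; FRET post-read, ex 430, em 486/530 nm.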
# Rango-impB inh = qHTS Assay for Inhibitors of Rango (Ran-regulated importin-beta cargo) - Importin beta complex formation; AID 540263, 2011; Rango CFP/YFP FRET sensor + importin beta, 45 min; Potency, µM (highest dose often 92.2 µM), for inactives: at the highest dose inhibition of complex formation; hit rate 0.031% among 340,000; active = rising FRET ratio curve, often small or poorly fitted; inconclusive = mostly compound fluorescence or quenching in the first reads; inactive = flat curves in all reads;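 note: potency is the fitted concentration of half-maximal effect; 0% = DMSO wells and 100% = buffer wells lacking importin beta; nearly all actives have a fitted effect of over 15% in size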
#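 FRET biosensor Rango (snurportin 1 IBB between N-terminal EYFP and C-terminal Cerulean), 50 nM in PBS/1 mM DTT/0.02% Tween-20/0.1% BSA, preincubated 5 min RT with compound; 0.125 microM importin beta added, 45 min RT, CFP/YFP FRET ratio read.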
# miR-21 FLuc = qHTS Assay for Modulators of miRNAs and/orActivators of miR-21 | HeLa miR-21 FLuc reporter, luciferase, 48 h | Potency, µM (titrated, usually from 38.3 µM), inactives show at the top dose reporter change, positive = more light | 340,000 tested, under 10 active | AID 2288, 2010; active = well fitted rising curve with a large enough effect; inconclusive = small, poorly fitted or top-dose-only effect; inactive = no such curve, though single readings can be large or run the other way;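 note: % of control where 0% means no effect; miR-21 action dims this reporter so a rising signal means less miR-21 action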
#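 Using DMEM plus 10% FBS, HeLa miR-21-FLuc cells are incubated with test compounds (final up to about 40uM) for 48 hours; firefly luciferase signal is then imaged following reagent-mediated lysis.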
# * hit, by the source's call; ? = inconclusive; nt = not tested or not shown; & = joins results of further samples. These rows are one share of the data; count on the stated rates, not on these rows.
SMILES,GLA inh pH 4.5,Rango release inh,Rango-impB inh,miR-21 FLuc
Cc1ccccc1NC(=O)CCc1c(C)nn(-c2ccc(N3CCCCC3)nn2)c1C,nt,-9%,0.0%,-8%&-6%
Cc1cnc(CN(C)C(=O)C2CCC(=O)N(CCc3ccccc3)C2)[nH]1 (configuration not stated),nt,2%,-0.3%,0%
COc1ccc(CN2CCN(C(=O)CCC(=O)Nc3nnc(C4CCCCC4)s3)CC2)cc1F,nt,8%,2.6%,6%
O=C(NCCSc1ccccc1)c1ccccc1F,nt,8%,-2.8%,nt
O=S(=O)(NCc1cccs1)c1ccc(Br)cc1,nt,7%,0.6%,-4%
COc1ccc(CCNC(=S)Nc2ccc(OC)cc2)cc1,-10,-9%,-0.5%,-4%
N#CC(C#N)=C(N)CSc1cccc[n+]1[O-],-1,0%,-3.8%,0%
CC(C)c1ccc(NC(=O)c2ccc(NS(C)(=O)=O)cc2)cc1,3,18%,-1.2%,-27%
O=C1c2ccccc2-c2nccnc21,4,21%,6.2%,-4%
COC(=O)c1ccccc1NC(=S)NC(=O)COc1ccc(C(C)C)cc1,-11,-8%,-4.4%,-9%
CC1=C(C(=O)OCC2CCCO2)C(c2ccc(C)cc2)C2=C(CCCC2=O)N1 (configuration not stated),5,0%,?,0%
COc1ccc(-c2[nH]c(-c3ccccc3)nc2SCC(=O)NC2CCCC2)cc1,-9,0%,5.1%,16%&8%
COc1ccccc1CN1C(=O)CN(C2CCCCCC2)C(=O)C1c1ccc(F)cc1 (configuration not stated),-7,-2%,-4.5%,4%&3%
OCC(O)C(O)CC1SCCS1 (configuration not stated),nt,-10%,-1.2%,nt
CCc1ccccc1N(CC(=O)NC(C)(C)CC)C(=O)CCC(=O)Nc1nccs1,nt,-2%,-1.1%,-2%
Cc1cc(C)n2nc(C(=O)Nc3ccc4c(c3)OCCO4)nc2n1,nt,19%,-4.7%,nt
C=CCNC(=S)NNC(=O)c1ccncc1,7,2%,3.5%,-1%
Cc1c(C(=O)N2CCC(C(N)=O)CC2)oc2ccc(Br)cc12,nt,7%,2.8%,nt
CC1CCCCN1C(=O)c1ccccc1OC1CCN(S(C)(=O)=O)CC1 (configuration not stated),-1,-16%,0.2%,1%
Cc1cccc(C)c1NC(=O)CN(C)C(=O)c1ccc(-c2cccc(C(F)(F)F)c2)o1,nt,8%,0.7%,nt
CC1COC(C)(CC(=O)NN2C(=O)c3ccccc3C2=O)O1 (configuration not stated),2,8%,-2.2%,-4%
C/C(=N\NC(=O)c1nnn(-c2nonc2N)c1-c1ccccc1)c1ccco1,nt,13%,5.2%,-3%
Cc1cc(C)n2cc(CSc3nc4ccccc4s3)nc2n1,5,5%,-1.6%,-64%
COc1ccc(NC(=O)CN(C)C(=O)c2c(-c3c(F)cccc3Cl)noc2C)cc1,nt,-6%,-1.4%,nt
O=C(Nn1cnc2ccccc2c1=O)c1ccc([N+](=O)[O-])cc1,7,1%,-4.9%,-3%
Cc1ccc(NC(=O)Cc2ccc3c(c2)CCCC3)cc1C,-15,2%,-0.4%,-21%
Cc1cc(C(=O)N/N=C/c2cccc([N+](=O)[O-])c2)c(C)o1,-8,-5%,-0.6%,-9%
C[C@]12CC[C@H](O)CC1=C[C@H](O)C1C2CC[C@@]2(C)C1CC[C@@]2(O)C#Cc1ccc(CN)cc1 (some centres not stated),nt,21%,-1.3%,nt
COc1ccc(-c2cn3cccc(C)c3n2)cc1Br,-1,-12%,4.1%,-45%
O=C(Cn1c(=O)sc2ccccc21)OC(CCl)CCl,8,9%,3.8%,0%
COc1ccc(OC)c(-c2nc(CN3CCN(C(=O)c4ccco4)CC3)c(C)o2)c1,nt,-14%,-2.0%,-8%
COC(=O)c1ccc(/C=C/C(=O)OCC(=O)Nc2sccc2C(N)=O)cc1,nt,-2%,-1.3%,nt
COc1cccc(S(=O)(=O)NCc2ccc(C(=O)N3CCN(c4ccccc4)CC3)cc2)c1,nt,-2%,1.1%,8%
COc1ccc(NC(=O)C(=O)NCCN2CCN(C(=O)c3ccc(C(C)(C)C)cc3)CC2)cc1,nt,-22%,3.8%,2%
O=C(c1cc(F)ccc1F)C1CCCN(C(=O)CCc2cnccn2)C1 (configuration not stated),-6,-18%,0.1%,4%
Cc1csc(NC(=O)Nc2cccc(Cl)c2)n1,7,2%,0.7%,-27%
CCC(C)Sc1nc2ccccc2c(=O)[nH]1 (configuration not stated),-17,2%,-1.3%,-22%
COc1ccc(S(=O)(=O)N(CC(=O)NCc2cccnc2)c2ccc(F)cc2)cc1OC,-7,nt,nt,0%
O=S(=O)(NCC1CCCO1)c1ccc(Br)cc1 (configuration not stated),nt,5%,-1.7%,-5%
COc1cccc(NC(=O)CN(C)C(=O)CNC(=O)c2ccc3ccccc3c2)c1,nt,4%,4.5%,nt
CCC1CCCCN1C(=O)Nc1cccc(NC(=O)N2CCCCC2CC)c1 (configuration not stated),-1,-10%,-1.4%,1%
Oc1ccc(-c2nnc(SCC3CCCCC3)o2)cc1,3,0%,-0.1%,-43%
Cc1cc(C)c(S(=O)(=O)NCc2cccs2)cc1C,nt,0%,-1.5%,-1%
O=C(O)c1ccc(NS(=O)(=O)c2ccc3c(c2)OCCO3)cc1,-4,3%,-0.7%,1%
O=C(COC(=O)c1cnc(Cl)c(Cl)c1)NCc1cccs1,1,-7%,1.6%,-1%
C[C@H]1CN=C(N(C)C)N1CC1CCC(C(C)(C)C)CC1 (some centres not stated),nt,-1%,2.4%,nt
COC(=O)c1ccc(C23CC4(C2)[C@H](CN(Cc2cccnc2)[C@@H]4c2ccccc2)C3c2ccc(Cl)nc2)cc1 (some centres not stated),-2&-7,2%,0.3%,16%
COc1cc(NC(=O)CCC2CCCC2)cc(-n2cnnn2)c1,4,2%,-1.5%,-6%
Cc1ccc(SCc2cn3c(C)cc(C)nc3n2)cc1,-2,3%,1.2%,-53%
Cc1ccc(-n2nnc3c(=O)n(CC(=O)OCc4ccccc4)cnc32)cc1,-3,?,-2.3%,-1%
CC(C)(C)C(=O)Nc1cc(NC(=O)C(C)(C)C)cc(C(=O)NNC(=O)c2ccncc2)c1,nt,22%,2.1%,-2%
CC(C)Cn1c(SCC(=O)O)nnc1-c1cccc(S(=O)(=O)N2CCOCC2)c1,nt,4%,1.6%,nt
CCSc1ccc(C(=O)Nc2ccc(Br)cn2)cc1[N+](=O)[O-],-4,0%,3.0%,-12%
O=C1c2ccccc2C(=O)N1OCc1ccc(Cl)cc1,-2,15%,-1.6%,-2%
CCOc1ccccc1NC1=C(OC)C(=O)C(Nc2ccccc2OCC)=C(OC)C1=O,nt,-11%,-1.8%,nt
COc1ccc(OC)c(NC(=O)COC(=O)CC2CCCCC2)c1,nt,15%,-1.9%,nt
COCCNC(=O)C(c1ccc(C)cc1)N(CCOC)C(=O)CCC(=O)Nc1nccs1 (configuration not stated),nt,2%,0.8%,-1%
O=C(NCc1ccco1)/C(=C/c1ccccc1F)NC(=O)c1ccccc1,nt,-11%,0.1%,0%
Cc1ccc[n+](-c2nc3ccccc3nc2C(=C=[N-])C#N)c1,-5&1,?,?,0%&-20%
N#CC(C(=O)Nc1ccc(Cl)cc1)=C1Nc2ccccc2N1,0,18%,2.8%,-4%

# 6 structures out of the list, arranged by SMILES length, high to low.
SMILES,GLA inh pH 4.5,Rango release inh,Rango-impB inh,miR-21 FLuc
C[C@]12CC[C@H](O)CC1=C[C@H](O)C1C2CC[C@@]2(C)C1CC[C@@]2(O)C#Cc1ccc(CN)cc1 (some centres not stated),nt,21%,-1.3%,nt
COc1cccc(S(=O)(=O)NCc2ccc(C(=O)N3CCN(c4ccccc4)CC3)cc2)c1,nt,-2%,1.1%,8%
C/C(=N\NC(=O)c1nnn(-c2nonc2N)c1-c1ccccc1)c1ccco1,nt,13%,5.2%,-3%
Cc1ccc(-n2nnc3c(=O)n(CC(=O)OCc4ccccc4)cnc32)cc1,-3,?,-2.3%,-1%
Cc1cc(C)n2cc(CSc3nc4ccccc4s3)nc2n1,5,5%,-1.6%,-64%
O=C(NCCSc1ccccc1)c1ccccc1F,nt,8%,-2.8%,nt

# Later entries:
SMILES,GLA inh pH 4.5,Rango release inh,Rango-impB inh,miR-21 FLuc
Cc1noc(C)c1C(=O)OCC(=O)c1c(N)n(CC(C)C)c(=O)n(C)c1=O,3,34%,1.1%,-5%
COC(=O)CCC(=O)N1CCC(CCC(=O)NCc2ccc(F)cc2)CC1,nt,7%,-1.1%,1%
O=c1oc([C@@H](O)c2ccccc2)cc2ccccc12,nt,-16%,4.2%,nt
Cc1cc(NC(=O)CSc2ncc(CO)n2Cc2ccc(F)cc2)no1,nt,?,-0.2%,0%
O=C(/C=C/c1ccc(Cl)cc1)N1CCN(c2ccccc2[N+](=O)[O-])CC1,-11,11%,0.3%,-4%
O=C(Nc1ccon1)c1ccc(S(=O)(=O)N2CCCCCC2)cc1,-3,29%,4.1%,-3%
Cc1ccc(OCC(=O)N(C)CCc2ccccn2)cc1,3,-1%,-2.4%,-10%
COc1ccc(-n2c(C)cc(C=O)c2C)cc1Cl,0,1%,-1.9%,-10%
O=C(NCc1ccccn1)c1ccc(OC2CCN(Cc3ccccc3O)CC2)cc1,nt,4%,2.0%,10%
CNC(=O)/C(C#N)=C/c1c(N2CCCCCC2)nc2ccccn2c1=O,nt,?,?,7%
O=c1[nH]c(=S)[nH]c2c1C(c1cc([N+](=O)[O-])c(N3CCOCC3)cc1N1CCOCC1)O2 (configuration not stated),-4,10%,0.2%,-4%
c1ccn(-c2ncnc3sc4c(c23)CCCC4)c1,-1,0%,0.5%,-19%
Fc1ccc(CNC(=S)NCc2cccc(Cl)c2)cc1,nt,-1%,-0.4%,0%
Cc1ccc(N2C(=O)N(CC(=O)NC(N)=O)C(=O)C2C)cc1 (configuration not stated),11,-6%,-3.3%,2%
Cn1c(NNC(=O)c2c(F)cccc2F)cc(=O)n(C)c1=O,15,?,?,3%
Cc1sc(NC(=O)Cc2ccc3c(c2)OCO3)nc1-c1ccc2c(c1)CCN2C(=O)c1ccc(F)cc1,-12,14%,3.9%,-9%
C=CCNC(=S)N1CCN(Cc2ccccc2)CC1,4,9%,-2.4%,-4%
CCc1ccccc1NC(=O)c1ccc(CN2CCC(Cc3ccccc3)CC2)cc1,0,-11%,-2.2%,0%
Cc1ccccc1C(=O)Nc1sc(C)c(C)c1C(=O)c1ccccc1,3,-1%,-4.2%,-1%
Cc1c(C(=O)C(=O)NCC2CCCO2)c2ccccc2n1C (configuration not stated),-9,3%,-1.6%,-1%
CC(C)CC(NC(=O)C(NC(=O)C1OC2OC(C)(C)OC2C2OC(C)(C)OC12)C(C)C)C(=O)O (configuration not stated),-2,-2%,-0.7%,-2%
COc1ccc(S(=O)(=O)Nc2cccc(-c3ccc4nncn4n3)c2)cc1,nt,7%,-3.3%,nt
COc1cc(O)c(CC=C(C)C)c(O)c1C(=O)CCc1ccc(O)cc1,4,2%,0.6%,10%
Cn1c(=O)c2c(nc(CN3CCN(Cc4ccccc4)CC3)n2Cc2ccc(F)cc2)n(C)c1=O,-5,12%,-3.4%,24%
O=C(c1ccc(S(=O)(=O)N2CCCCC2)cc1)N1CCCC(C(F)(F)F)C1 (configuration not stated),nt,-4%,-0.8%,nt
O=C(Cn1[nH]c(=O)c2ccccc2c1=O)OCC(=O)c1ccc(F)cc1,nt,0%,-0.4%,nt
CSc1ncccc1C(=O)OCC(=O)NC1CCCc2ccccc21 (configuration not stated),nt,-2%,-1.6%,nt
CN(C)S(=O)(=O)c1cccc(N=C2SCCN2Cc2ccccc2)c1,8,?,0.1%,2%
COc1cc2[nH]c(=S)nc(NCCC(C)C)c2cc1OC,5,-15%,4.2%,10%
Cc1ccc(C)c(C(=O)CN2C(=O)NC3(CCCCCCC3)C2=O)c1,1,-20%,1.2%,-11%
OC(CNCC(c1ccco1)N1CCCCC1)c1ccccc1 (configuration not stated),0,5%,0.7%,-12%

# Bioassay records (PubChem)
